From PubChem
Six1-Eya2 inh: blocks human Six1 binding to Eya2. Q15475+O00167. AlphaScreen GST-Six1/His-Eya2 binding, biochemical; stronger effect = lower value; control for the full effect not named in the record. activity change, % (concentration not given with the values). 360,000 compounds, 0.56% hits. AID 651725; in the data active = activity change below about -65%; inconclusive = about -30% to -65%; inactive = above about -30%; also: % is scaled to controls: 0 for no effect and ±100 for the full control effect
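Compounds are tested against tagged Six1 and Eya2 proteins bridged by glutathione donor and nickel acceptor beads; after a one-hour incubation at 37 °C without light, AlphaScreen emission is recorded.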
TRPML1 ag: activates the human TRPML1 channel; Q9GZU1; TRPML1-expressing cells, Ca2+ dye fluorescence, FDSS; host cell line not named in the record; reference of the full effect not given here; activation, % (test concentration not listed); 410,000 compounds, 0.12% hits; AID 624414; in the data active = activation above about 50%; inconclusive = about 30% to 50%; inactive = below about 30%; also: 0% is about no effect; the text of the record puts the active cut at 80%
Target sequence (Q9GZU1 whole entry, looked up): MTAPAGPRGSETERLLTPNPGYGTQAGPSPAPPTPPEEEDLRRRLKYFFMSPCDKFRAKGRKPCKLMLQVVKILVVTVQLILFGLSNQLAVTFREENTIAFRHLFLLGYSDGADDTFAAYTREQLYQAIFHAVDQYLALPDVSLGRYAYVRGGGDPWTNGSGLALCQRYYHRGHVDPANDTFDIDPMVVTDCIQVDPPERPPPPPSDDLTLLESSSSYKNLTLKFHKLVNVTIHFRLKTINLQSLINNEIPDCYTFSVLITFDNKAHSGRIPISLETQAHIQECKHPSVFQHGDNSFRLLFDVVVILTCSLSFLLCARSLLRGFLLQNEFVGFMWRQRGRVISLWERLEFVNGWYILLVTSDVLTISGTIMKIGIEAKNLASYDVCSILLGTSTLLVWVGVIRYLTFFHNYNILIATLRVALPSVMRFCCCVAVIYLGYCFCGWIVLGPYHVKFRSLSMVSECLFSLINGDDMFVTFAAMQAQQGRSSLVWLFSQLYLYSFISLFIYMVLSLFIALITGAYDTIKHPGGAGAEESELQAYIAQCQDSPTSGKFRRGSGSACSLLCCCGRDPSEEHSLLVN
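Calcium fluorescence on an FDSS kinetic reader gave the read-out. Tet-induced TRPML1-DL cells were plated overnight, dye-loaded (Ca8 with quencher, 45-90 min, room temperature, dark), then read 110 s after compound addition, and again 110 s after 4uM final 54-4 (EC80).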
PINK1 modulator: changes PINK1 expression | PINK1 immunofluorescence, high-content cytometry, 24 h | Potency, µM (titrated, usually from 76.6 µM), for the others: at the top dose activation (PINK1 increase), usual class: activators | 410,000 compounds, 0.2% hits | AID 624263; active = well fitted activation curve with a large enough effect; inconclusive = small, poorly fitted or top-dose-only effect; inactive = flat fitted curve, though single readings scatter; cell line not stated here;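 also: potency is read from the fitted curve at half-maximal effect; % of control where 0% means no effect; nearly all actives have a fitted effect of over 65% in size; a mitochondrial uncoupler was the plate control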
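Cells are seeded, rested 12 hours, then given compound at five concentrations or DMSO for 24 hours. After fixation, blocking and antibody staining, PINK1 amount and mitochondrial localization are scored; CCCP serves as control.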
CtBP-E1A inh: blocks the CtBP interaction with E1A | activity change, % (test concentration not listed) | AID 651724 | 340,000 compounds, 0.49% hits | AlphaScreen GST-E1A/His-CtBP binding, 1536-well; stronger effect = lower value; control for the full effect not named in the record; in the data active means activity change below about -65%; inconclusive means about -30% to -65%; inactive means above about -30%; also: % is scaled to controls: 0 for no effect and ±100 for the full control effect
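Protein mix (5X: 125 nM each GST-E1A, His-CtBP) was incubated with pinned compound 2 h at 37 deg C in dark, in 50 mM Tris pH 8.0 buffer with 300 mM NaCl. Glutathione donor and nickel acceptor beads followed; AlphaScreen signal read after 1 h.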
TRPML1 inh: inhibitors of human TRPML1 channel; TRPML1-inducible cells, Ca2+ dye fluorescence, FDSS; stronger effect = lower value; inhibition of EC80 agonist-evoked calcium signal; activity change, negative = inhibition, % (concentration not given with the values); 390,000 compounds, 0.02% hits; in the data active means activity change below about -50%; inconclusive means about -30% to -50%; inactive means above about -30%;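 also: stimulus is agonist 54-4 at its EC80 concentration; % is scaled to controls: 0 for no effect and ±100 for the full control effect; the text of the record puts the active cut at -80%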
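Tet-induced TRPML1-DL cells loaded with Ca8 no-wash calcium dye were read kinetically on FDSS. Compound addition was followed by EC80 agonist 54-4 (4 uM final); inhibition was read over 110 s.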
D2 agonist: activates the human D2 dopamine receptor; DiscoveRx PathHunter D2 beta-arrestin, luminescence, 90 min; 100% = 57 uM dopamine signal; activation, % (no concentration beside the values); 360,000 compounds, 0.084% hits; in the data active = activation above about 40%; inconclusive = about 15% to 40%; inactive = below about 15%; also: compound concentration not given in the record; the text of the record calls up to 30% inactive
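Agonist mode: compounds alone added to overnight-plated D2 PathHunter cells for 90 min at 37 C, with 57 uM final dopamine (EC100) defining full response. Beta-arrestin recruitment detected by chemiluminescent reagent, read after 1 h at ambient temperature.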
The depositor's hits bear a star; ? = inconclusive; nt = no result given; [ ] = remark or other dose. Hits appear at their usual frequency; 1% or so of the library scored in one or more.

canonical_smiles,Six1-Eya2 inh,TRPML1 ag,PINK1 modulator,CtBP-E1A inh,TRPML1 inh,D2 agonist
COc1ccccc1C1CC(=O)n2c(nc(-c3ccccc3)c2-c2ccccc2)S1 (configuration not stated),-5,-0.7,-0.7%,-7,-3,1.9
CCCC(=O)Nc1ccc(C(=O)NCc2ccccc2Cl)cc1,3,-0.6,-0.8%,4,5,3.0
O=C(NCCc1ccccc1)C1CCC(CNS(=O)(=O)c2cccc3cccnc23)CC1 (configuration not stated),4,2.1,-1.6%,-6,10,0.6
CSC1=NCCN1CCOc1ccccc1,-3,0.1,2.3%,0,-5,-1.6
Cn1c(=O)c2c(nc(OC3CCCCCC3)n2C)n(C)c1=O,-7,1.4,4.4%,10,-8,2.3
CCCCn1c(N)c(N(CC(C)C)C(=O)c2cccc(OCc3ccccc3)c2)c(=O)[nH]c1=O,3,0.2,9.3%,0,-8,-0.7
O=C(CCc1nnc(CCCc2ccccc2)o1)N1CCCCCC1,-2,0.8,0.2%,nt,6,-4.0
Cc1ccc(Cl)cc1N1CCN(C(=O)CN2C(=O)COc3ccc(S(=O)(=O)N4CCCCCC4)cc32)CC1,nt,1.4,0.2%,nt,23,nt
O=C(c1ccc(-c2ccccc2)c(F)c1)C1CCCN(C(=O)c2cncs2)C1 (configuration not stated),-2,-0.1,0.4%,2,5,-2.3
COCCNC(=O)CN(C)S(=O)(=O)c1ccc2c(c1)OCCO2,1,-0.2,1.7%,5,5,-1.3
CC1CCC(NC(=O)Cn2ncc3c4ccccc4n(Cc4ccc(F)cc4)c3c2=O)CC1 (configuration not stated),nt,-0.6,1.2%,nt,7,nt
CC(=O)c1cccc(NCc2ccccc2-c2nnc(-c3ccccc3)o2)c1,nt,1.7,1.9%,nt,0,nt
COc1ccc(CCC(=O)N2CCN(S(=O)(=O)c3ccc(OC)cc3)CC2)cc1,-1,-0.1,-0.7%,nt,-8,-2.2
COc1ccc(CN2CCCCC2C)cc1OC (configuration not stated),6,1.0,-0.5%[38.3 µM],6,2,-2.7
O=C1/C(=C/c2ccccc2[N+](=O)[O-])COc2ccccc21,1,1.8,-1.9%,0,32,12

Filtered by structure: those above containing an aryl methoxy group
canonical_smiles,Six1-Eya2 inh,TRPML1 ag,PINK1 modulator,CtBP-E1A inh,TRPML1 inh,D2 agonist
COc1ccccc1C1CC(=O)n2c(nc(-c3ccccc3)c2-c2ccccc2)S1 (configuration not stated),-5,-0.7,-0.7%,-7,-3,1.9
COc1ccc(CCC(=O)N2CCN(S(=O)(=O)c3ccc(OC)cc3)CC2)cc1,-1,-0.1,-0.7%,nt,-8,-2.2
COc1ccc(CN2CCCCC2C)cc1OC (configuration not stated),6,1.0,-0.5%[38.3 µM],6,2,-2.7

Back to the main list; the two compounds before the break are reprinted first.
canonical_smiles,Six1-Eya2 inh,TRPML1 ag,PINK1 modulator,CtBP-E1A inh,TRPML1 inh,D2 agonist
COc1ccc(CN2CCCCC2C)cc1OC (configuration not stated),6,1.0,-0.5%[38.3 µM],6,2,-2.7
O=C1/C(=C/c2ccccc2[N+](=O)[O-])COc2ccccc21,1,1.8,-1.9%,0,32,12
CC(C)COP(=O)(OCC(C)C)C(O)c1ccc(N(C)C)cc1 (configuration not stated),5,1.6,-0.7%,-20,-10,-1.7
O=C(Cn1ncc2c3ccccc3n(Cc3cccc(Cl)c3)c2c1=O)Nc1ccc(F)cc1F,nt,1.0,-1.0%,nt,-1,nt
CCCCC(O)(CCCC)C(=O)NNc1ccccc1,4,3.2,0.1%,1,29,1.2
CCCCOC(=O)c1ccc(NC(=O)C(=O)CC(=O)c2ccc(OC)cc2)cc1,-1,0.3,6.7%,2,1,2.9
CCOC(=O)C(NC(=O)Nc1ccc(F)cc1F)(Oc1ccc(F)cc1)C(F)(F)F (configuration not stated),-2,-0.9,1.0%,-15,1,-9.2
CCCCC[C@H](O)/C=C/C1=C(CCCCCCC(=O)O)C(=O)CC1,3,-0.1,-0.9%,-22,6,-1.2
Cc1[nH][nH]c(=O)c1C(c1c(C)[nH][nH]c1=O)c1cn(Cc2ccccc2Cl)c2ccccc12,-13,1.4,19%,-2,-6,-2.7
COC(=O)c1cc(OC)c(OC)cc1NC(=O)CCNC(=O)c1ccco1,-5,0.8,1.3%,0,6,-2.4
CCOC(=O)CCNC(C(=O)OCC)c1ccccc1 (configuration not stated),8,-0.5,1.9%,16,-10,-0.1
Cn1c(=O)c2c(ncn2CC(=O)Nc2cccc(Cl)c2Cl)n(C)c1=O,nt,0.1,1.0%,nt,4,nt
COc1cccc(CNC(=S)Nc2cccc(Cl)c2C)c1,-7,1.8,-0.9%,4,9,0.1
COc1ccc(-c2nsc(NC(=O)COc3ccc(C)c(C)c3)n2)cc1,nt,2.4,-1.4%,nt,-6,nt
COc1ccccc1NC(=O)CSc1ncnc2c1oc1ccccc12,-1,0.4,24%,1,-3,-0.9
NNC(=O)c1ccc2nc(-c3ccc(Br)cc3)cn2c1,-13,3.0,2.6%,-2,-9,6.3
CCCc1cc(=O)[nH]c2nnc(SCC(=O)NC3CCCCC3)n12,4,0.4,-0.7%,-18,-3,1.0
CCOc1ccc(N2C(=O)CC(SC(=NC)Nc3ccc4c(c3)OCO4)C2=O)cc1 (configuration not stated),9,-1.1,11%,1,-4,-2.3
CC1C(=O)Nc2ccc(S(=O)(=O)N3CCN(c4ccccc4F)CC3)cc2NC1=O (configuration not stated),-9,-0.5,3.5%,-2,-9,3.8
CCn1c(CNC(=O)Cc2ccc(OC)cc2)nnc1SCC(=O)Nc1ccc(C(=O)O)cc1,-2,-0.3,0.1%,-4,1,0.7
CC(=O)Cc1nsc(NC(=O)c2ccco2)n1,4,0.8,?,0,-5,-0.1
CC(=O)N1CC=C2C(C#N)=C(N)C(C#N)(C#N)[C@H](c3ccoc3)[C@H]2C1,-9,1.8,3.6%[38.3 µM],-16,?,-2.4
Cc1nn2c(C)c(C(=O)NCc3ccco3)cnc2c1-c1ccccc1,nt,0.3,1.8%,nt,-1,nt
O=C(Nc1ccc(Cl)cn1)c1cnn2cccnc12,0,-0.6,1.1%,7,-7,2.9
O=C(Nc1nc2ccccc2n1CCN1CCOCC1)c1ccccc1,2,0.4,0.5%,-4,3,-0.1
O=C(NCCc1cscn1)C1CCC(=O)N(Cc2ccc(Cl)cc2)C1 (configuration not stated),5,-0.4,-1.7%,0,-4,-1.6
Cc1ccc(NC(=O)C2(c3ccc([N+](=O)[O-])cc3)CCCC2)cc1,-3,1.2,1.5%,nt,-3,-4.6
C/C(=N\NC(=O)c1ccco1)c1cc2ccccc2o1,-10,-0.8,0.0%,0,59,-4.3
CCCc1cc(=O)n2[nH]c(NCc3ccc(CC)cc3)nc2n1,nt,-0.2,-0.8%,nt,-7,nt
O=C(O)/C(=C\c1cccc([N+](=O)[O-])c1)c1ccc(S(=O)(=O)N2CCCCC2)s1,11,0.3,-0.5%,6,1,-0.9
C=CCN1c2ccccc2[C@]23C[C@@H](C(=O)OC)N(C(=O)c4cccs4)C2=NC(C(=O)OC)=C(C(=O)OC)[C@H]13,0,0.0,19%,nt,-19,-1.1
O=C(Nc1ccc(SC(F)F)cc1)c1ccc(F)cc1,12,-0.1,3.4%,14,16,0.0
COc1ccc2c(c1)c(C(=O)CN1CCOCC1)c(C)n2C,-2,-1.3,-1.3%,-2,-4,-1.6
COC(=O)c1sccc1S(=O)(=O)N(CC(=O)NCc1ccc(C)cc1)c1ccc(C)c(C)c1,nt,3.2,5.2%,nt,-4,nt
O=C(c1ccccc1CCc1ccccc1)N1CCCC1,5,0.0,2.8%,10,29,-3.0
CCOc1c(/C=C(\C#N)C(N)=O)c2ccccc2n1CC,-6,2.6,-0.3%,-14,-21,-0.5
O=C1C=C(NCc2ccncc2)CC(c2ccccc2)C1 (configuration not stated),6,0.3,2.2%,-1,4,-2.2
Cc1ccc(NC(=O)CSc2nc3c(oc4ccccc43)c(=O)n2-c2ccc(F)cc2)c(C)c1,nt,-0.2,0.6%,nt,22,nt
Nc1c(Cl)cc2c(c1Oc1ccccc1)C(=O)c1ccccc1C2=O,?,0.8,nt,8,-4,-0.1
Cc1ccccc1-n1c(SCC(=O)NC(N)=O)nc2sc(-c3ccccc3)cc2c1=O,-7,-0.2,-2.0%,-8,10,6.0
Cc1ccc(-n2nc(C)c(C(=O)N3CCN(C(=O)c4ccco4)CC3)c2-n2cccc2)cc1,-1,0.7,0.6%,2,6,2.9
CCOC(=O)c1c(C(C)(C)C)oc2ccc(OCC#N)cc12,19,2.0,1.6%,28,1,1.1
CCCCCCN1CCN(C2CN(Cc3ccc(C)cc3)S(=O)(=O)C2)CC1 (configuration not stated),-1,-0.3,2.1%,3,nt,0.8
O=C(CCc1nc(-c2ccccc2F)no1)NCCN1CCc2ccccc2C1,-10,-0.4,-1.7%,-4,-9,-3.4
O=C(Nc1cccc(C(F)(F)F)c1)c1cc2ccc3cccnc3c2[nH]1,nt,0.4,25%,nt,9,nt
COc1cc(/C=C/C(=O)NCCn2c(C)cc3ccccc32)cc(OC)c1OC,-12,0.1,5.3%,-4,0,2.0
CC(=O)c1c(C)[nH]c(C(=O)OCc2nc3ccsc3c(=O)[nH]2)c1C,-23,1.0,1.9%,3,-15,-2.5
Cc1nnc(N/N=C/c2cc(C)n(-c3ccc(F)cc3)c2C)n1N,-16,-1.7,0.0%,-12,16,4.0
O=C(c1cccc(-c2ccccc2)c1)N1CC[C@@H](N2CCC(O)CC2)[C@H](O)C1,1,-0.2,-1.6%,2,-9,2.6
